Rango-impB inh = inhibitors of Rango-importin beta complex formation; Q14974; Rango CFP/YFP FRET sensor + importin beta, 45 min; Potency, µM (series often up to 92.2 µM), inactives show at the highest dose inhibition of complex formation; 340,000 compounds, 0.031% hits; AID 540263; active = rising FRET ratio curve, often small or poorly fitted; inconclusive = mostly compound fluorescence or quenching in the first reads; inactive = flat curves in all reads;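 note: potency is the fitted concentration of half-maximal effect; 0% = DMSO wells and 100% = buffer wells lacking importin beta; nearly all actives have a fitted effect of over 15% in size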
Target sequence (Q14974 whole entry, looked up): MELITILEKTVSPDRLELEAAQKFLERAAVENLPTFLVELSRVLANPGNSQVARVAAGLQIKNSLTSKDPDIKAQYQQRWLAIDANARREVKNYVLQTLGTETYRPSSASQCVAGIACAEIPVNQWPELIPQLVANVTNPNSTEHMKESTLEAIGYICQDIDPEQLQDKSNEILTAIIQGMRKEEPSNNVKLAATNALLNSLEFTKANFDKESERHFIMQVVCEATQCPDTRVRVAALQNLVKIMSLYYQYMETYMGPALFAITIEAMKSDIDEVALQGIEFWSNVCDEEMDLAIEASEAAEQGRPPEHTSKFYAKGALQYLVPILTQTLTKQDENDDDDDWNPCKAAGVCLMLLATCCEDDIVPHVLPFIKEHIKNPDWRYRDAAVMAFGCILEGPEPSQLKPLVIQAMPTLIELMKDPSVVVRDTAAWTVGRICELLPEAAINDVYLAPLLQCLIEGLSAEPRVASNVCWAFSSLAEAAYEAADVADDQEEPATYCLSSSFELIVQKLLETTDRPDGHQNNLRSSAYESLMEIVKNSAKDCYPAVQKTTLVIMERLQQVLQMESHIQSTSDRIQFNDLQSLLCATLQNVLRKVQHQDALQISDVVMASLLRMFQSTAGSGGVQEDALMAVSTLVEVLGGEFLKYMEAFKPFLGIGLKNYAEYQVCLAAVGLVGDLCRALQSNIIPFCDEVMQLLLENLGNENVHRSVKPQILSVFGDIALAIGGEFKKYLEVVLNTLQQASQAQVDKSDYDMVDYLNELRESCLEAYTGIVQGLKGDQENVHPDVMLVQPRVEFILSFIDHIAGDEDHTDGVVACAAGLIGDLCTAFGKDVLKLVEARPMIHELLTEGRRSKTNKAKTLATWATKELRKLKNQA
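Inhibition scored from the CFP 486 nm/YFP 530 nm FRET ratio 45 min after adding 0.125 microM importin beta to 50 nM Rango biosensor preincubated 5 min with compound (room temperature, PBS with DTT, Tween-20, BSA). No-importin wells as positive control.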
Rango release inh = inhibitors of RanGTP-induced Rango-importin beta complex dissociation; Biochemical FRET Rango-importin beta, RanGTP-induced dissociation; Potency, µM (titrated, usually from 46.1 µM), without a hit: top-dose activity change, negative = inhibition; 340,000 compounds, 0.071% hits; O95149+P62826; active means falling FRET ratio curve, often poorly fitted, with flat reads before Ran was added; inconclusive means other falling curves, or compound fluorescence or quenching; inactive means flat or rising ratio curve;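 note: potency is the fitted concentration of half-maximal effect; % of control where 0% means no effect; nearly all actives have a fitted effect of over 45% in size; -100% = wells without RanGTP and RCC1; the record marks most hits as doubtful in a second field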
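Rango (0.1 uM)–importin beta (0.25 uM) complex; RanGTP-RCC1 trigger; 45 min RT; CFP/YFP FRET read.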
GLA inh pH 4.5 = alpha-galactosidase A (human) inhibition, pH 4.5; activity change, negative = inhibition, % at 105 µM; AID 1467; P06280; 230,000 tested, under 10 active; purified enzyme, 4-MU-alpha-Gal fluorescence, pH 4.5; inconclusive = small, poorly fitted or top-dose-only inhibition, or a rising curve; inactive = flat fitted curve, though single readings scatter; no compound was filed as active;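 note: 0% = full activity with enzyme and -100% = basal without enzyme; dose as in the result columns while the protocol names 77 µM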
miR-21 reporter = raises the signal of a miR-21 reporter | HeLa miR-21 FLuc reporter, luciferase, 48 h | AID 2288 | Potency, µM (top dose mostly 38.3 µM), without a hit: top-dose reporter change, positive = more light | 340,000 tested, under 10 active; active = well fitted rising curve with a large enough effect; inconclusive = small, poorly fitted or top-dose-only effect; inactive = no such curve, though single readings can be large or run the other way;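 note: % of control where 0% means no effect; miR-21 action dims this reporter so a rising signal means less miR-21 action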
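HeLa miR-21-FLuc reporter line, endogenous miR-21; 2000 cells/well in DMEM/10% FBS; compound titration up to ~40uM final, 48 h, 37 degree Celsius; luciferase detection reagent, 15 min lysis, CCD luminescence.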
* hit, by the source's call; ? = inconclusive; . = no result given; & = joins results of further samples; [ ] = dose if it differs, or a comment.

Rango-impB inh	SMILES	Rango release inh	GLA inh pH 4.5	miR-21 reporter
0.4%	CCCNC(=O)c1oc2ccc3c(c2c1C)C(=O)CC(C)(C)O3	1.0%	7.3	-37.4%
-0.2%	CCOc1ccc(OCCC(=O)NNC(=O)c2cc(OC)c(OC)c(OC)c2)cc1	-15.4%	.	.
0.0%	CCOC(=O)C(=CNc1ccc2c(c1)CCN2C(C)=O)C(=O)OCC	-4.7%	-9.5	-1.0%
?	CC1C2CC(CC1(C)C)N(C(=O)Nc1ccc3nccnc3c1)C2 (configuration not stated)	?	3.2	-19.6%
-3.8%	CCOC(=O)CSc1ncc(-c2ccccc2)cn1	7.4%	3.3	-7.5%
10.9%	O=C(O)C1CCCCN1C(=O)c1cc2c(s1)CCCCC2 (configuration not stated)	15.4%	.	.
?	N#CC1=C(N)SC(N)=C(C#N)C1Cc1ccccc1	?	3.2	-0.8%
2.3%	O=c1cc(CSc2ccccc2)nc(-c2ccncc2)[nH]1	2.3%	10.1	-0.2%
4.0%	CCN(Cc1nc2ccccc2c(=O)[nH]1)C(=O)C1CC(=O)N(c2cccc3ccccc23)C1 (configuration not stated)	2.9%	.	.
-3.4%	COc1nc(NCc2ccc(Cl)cc2)nc(OC)n1	-12.2%	11.4	-16.8%
-0.3%	Cc1ccc(C(=O)COC(=O)c2ccncc2)cc1[N+](=O)[O-]	1.0%	1.8	-1.0%
1.0%	CC(=O)c1c(C)n(-c2ccc(Br)cc2)c2ccc(O)cc12	-17.8%	.	1.8%
2.8%	O=C(NCc1ccco1)NC1CCCCC1	22.7%	-4.4	-16.3%
-1.7%	O=C1CS/C(=N/N=C/c2ccccc2)N1c1ccc(O)cc1	-10.5%	.	3.2%
0.3%	CCCC(O)(CCN1CCOCC1)c1ccc(Br)cc1 (configuration not stated)	10.3%	-9.4	-3.8%
-0.1%	Nc1nc(NCC(=O)O)nc(N2CCCCCC2)c1[N+](=O)[O-]	-6.7%	.	-0.6%
-0.1%	CC(C)(C)OC(=O)NCc1ccc(NC(=O)c2nc[nH]c2C(=O)N[C@@H](Cc2ccccc2)C(=O)OCc2ccccc2)cc1	-10.9%	9.3	?
0.3%	S=c1[nH]nc(-c2cccnc2)n1/N=C/C=C/c1ccco1	-7.6%	1.0	5.3%
6.0%	CC(C)[C@H](NC(=O)N1CC(=O)Nc2ccccc21)C(=O)N[C@@H](Cc1ccccc1)C(=O)O	5.8%	.	-0.1%
-1.4%	COc1ccc(C(=O)Nc2ccccc2C(=O)NC(Cc2ccc(O)cc2)C(=O)NNC(=O)c2ccccc2)cc1 (configuration not stated)	-0.4%	-4.2	-13.8%
-4.8%	COc1cccc(OCc2nnc(SCC(=O)OCc3ccccc3)o2)c1	3.8%	-5.3	0.2%
0.5%	O=C(CCN1C(=O)C2C3CCC(C3)C2C1=O)Nc1ccc(Cl)cc1Cl (configuration not stated)	7.4%	.	-6.5%
5.7%	O=C(Oc1c(Cl)cc(Cl)c2cccnc12)c1cccc([N+](=O)[O-])c1	-7.3%	2.3	?
-2.7%	COc1ccc(-c2cnn3c(N)c(S(=O)(=O)c4ccccc4)cnc23)cc1	42.1%	-12.2	-10.5%
0.3%	Cc1ccc(NS(=O)(=O)c2ccc(Cl)c(C(=O)O)c2)cc1S(=O)(=O)N1CCOCC1	6.4%	0.7	1.6%
0.2%	CCOc1cc(N2CCOCC2)c(OCC)cc1NC(=S)NCCCOC	-3.0%	6.7	-0.1%
-0.3%	CC(=O)NS(=O)(=O)c1ccc(N2C(=O)CC(Sc3nccc(C)n3)C2=O)cc1 (configuration not stated)	-2.6%	.	-0.9%
0.5%	O=C(C=Cc1ccco1)N1CCOCC1	8.4%	.	.
1.8%	CCc1nc(SCc2cc(=O)[nH]c3ccccc23)c2c(C)c(C)sc2n1	9.0%	.	.
-0.2%	COc1ccc(CCNC(=O)COC(=O)Cc2ccccc2[N+](=O)[O-])cc1	1.0%	.	.
0.1%	COc1ccc(CCNS(=O)(=O)CC23CCC(CC2=O)C3(C)C)cc1OC (configuration not stated)	0.1%	.	-0.4%
1.0%	CCOC(=O)c1cc(C(=O)Nc2ccc(C)c(F)c2)nn1C	-5.3%	1.4	-60.1%
0.9%	COc1ccc(/C=N/Nc2nc(N3CCCC3)nc(N3CCCC3)n2)cc1O	-9.9%	6.4	2.3%
-0.2%	CC1(C2CC2)NC(=O)N(CC(=O)Nc2cc(S(=O)(=O)N3CCCCC3)ccc2Cl)C1=O (configuration not stated)	14.5%	.	.
-1.3%	Cc1cc(Cl)ccc1NC(=S)NCc1cccs1	-1.2%	5.9	0.0%
-0.6%	CCOc1ccc(-c2cnc(NCc3cccc4ccccc34)n2CCOC)cc1	-9.9%	.	27.8%
5.6%	Cn1ccnc1/C(=N\NC(=O)c1ccc(O)cc1)c1cccc([N+](=O)[O-])c1	4.6%	-3.3	-9.1%
-5.5%	CC(=O)c1cccc(NC(=O)c2nc(-c3ccccc3)oc2C)c1	16.9%	-0.5	-6.1%
0.6%	CCCCOC(=O)CCc1nc2ccccc2[nH]1	4.3%	10.7	-5.7%
-3.0%	CC1CCN(S(=O)(=O)c2cn(CC(=O)N3CCN(C)CC3)c(=O)c3ccccc23)CC1	2.3%	-6.2	-5.8%
1.3%	COC(=O)N1C(=O)[C@@](c2ccccc2)(C2CCCCC2)N1C(=O)OC	-12.2%	.	-0.2%
0.4%	c1ccc(CNc2ccc3ccccc3n2)nc1	-3.4%	2.5	-28.5%
?	C/C(=N/N=C(\C)c1ccccc1O)c1ccccc1O	?	.	-22.3%
-1.2%	CCCNC(=O)COc1coc(CN2CCN(c3ccccc3F)CC2)cc1=O	4.7%	.	2.0%
2.0%	Cc1ccc(C23CC4CC(CC(CC(=O)N5CCOCC5)(C4)C2)C3)cc1	8.4%	-29.4	14.5%
0.2%	Cc1csc(NC(C)c2nc3cc(C(F)(F)F)ccc3n2CCOCCO)n1 (configuration not stated)	2.3%	.	.
1.2%	CCOC(=O)C1CCN(S(=O)(=O)c2ccc(C(C)(C)C)cc2)CC1	10.9%	2.0	1.9%
-1.0%	Cc1cccc(-c2ocnc2C(=O)N2CCN(C(=O)c3cccs3)CC2)c1	-8.8%	.	-0.1%
-4.1%	O=C(C[n+]1ccc(C(=O)NCc2ccccc2)cc1)c1ccc(OC(F)F)cc1	-4.7%	-6.1	-3.9%
-1.2%	Cc1ccc2c(c1)C1CN(C)CCC1N2S(=O)(=O)c1cccc(C(F)(F)F)c1 (configuration not stated)	-16.5%	.	.

Sorted by molecular weight (low to high): 19 of the compounds above
Rango-impB inh	SMILES	Rango release inh	GLA inh pH 4.5	miR-21 reporter
2.8%	O=C(NCc1ccco1)NC1CCCCC1	22.7%	-4.4	-16.3%
?	C/C(=N/N=C(\C)c1ccccc1O)c1ccccc1O	?	.	-22.3%
2.3%	O=c1cc(CSc2ccccc2)nc(-c2ccncc2)[nH]1	2.3%	10.1	-0.2%
-1.3%	Cc1cc(Cl)ccc1NC(=S)NCc1cccs1	-1.2%	5.9	0.0%
1.0%	CCOC(=O)c1cc(C(=O)Nc2ccc(C)c(F)c2)nn1C	-5.3%	1.4	-60.1%
10.9%	O=C(O)C1CCCCN1C(=O)c1cc2c(s1)CCCCC2 (configuration not stated)	15.4%	.	.
-1.7%	O=C1CS/C(=N/N=C/c2ccccc2)N1c1ccc(O)cc1	-10.5%	.	3.2%
0.3%	CCCC(O)(CCN1CCOCC1)c1ccc(Br)cc1 (configuration not stated)	10.3%	-9.4	-3.8%
0.0%	CCOC(=O)C(=CNc1ccc2c(c1)CCN2C(C)=O)C(=O)OCC	-4.7%	-9.5	-1.0%
5.7%	O=C(Oc1c(Cl)cc(Cl)c2cccnc12)c1cccc([N+](=O)[O-])c1	-7.3%	2.3	?
-2.7%	COc1ccc(-c2cnn3c(N)c(S(=O)(=O)c4ccccc4)cnc23)cc1	42.1%	-12.2	-10.5%
1.8%	CCc1nc(SCc2cc(=O)[nH]c3ccccc23)c2c(C)c(C)sc2n1	9.0%	.	.
0.9%	COc1ccc(/C=N/Nc2nc(N3CCCC3)nc(N3CCCC3)n2)cc1O	-9.9%	6.4	2.3%
0.1%	COc1ccc(CCNS(=O)(=O)CC23CCC(CC2=O)C3(C)C)cc1OC (configuration not stated)	0.1%	.	-0.4%
-0.2%	CCOc1ccc(OCCC(=O)NNC(=O)c2cc(OC)c(OC)c(OC)c2)cc1	-15.4%	.	.
4.0%	CCN(Cc1nc2ccccc2c(=O)[nH]1)C(=O)C1CC(=O)N(c2cccc3ccccc23)C1 (configuration not stated)	2.9%	.	.
-0.2%	CC1(C2CC2)NC(=O)N(CC(=O)Nc2cc(S(=O)(=O)N3CCCCC3)ccc2Cl)C1=O (configuration not stated)	14.5%	.	.
0.3%	Cc1ccc(NS(=O)(=O)c2ccc(Cl)c(C(=O)O)c2)cc1S(=O)(=O)N1CCOCC1	6.4%	0.7	1.6%
-1.4%	COc1ccc(C(=O)Nc2ccccc2C(=O)NC(Cc2ccc(O)cc2)C(=O)NNC(=O)c2ccccc2)cc1 (configuration not stated)	-0.4%	-4.2	-13.8%

(next part)
Rango-impB inh	SMILES	Rango release inh	GLA inh pH 4.5	miR-21 reporter
1.9%	CC(C)(Cc1ccccc1)/[N+]([O-])=C\c1ccc(C(F)(F)F)cc1	7.2%	.	.
4.0%	CN(c1nc2ccccc2n2c(C3CC3)nnc12)S(=O)(=O)c1ccccc1	20.4%	4.3	0.5%
-0.8%	COc1ccc(C(=O)N(CCc2ccccc2)Cc2ccccc2)c(OC)n1	58.2%	.	4.5%
-1.8%	COC(=O)c1cc2n(n1)CCN(Cc1ccccc1Cl)C2=O	11.8%	1.9	4.5%
-0.3%	N#Cc1nc(-c2ccc(F)cc2)oc1NCc1ccccc1	11.9%	-6.5	-35.3%
2.2%	COC(=O)c1ccc(-n2nc(C(F)(F)F)c3c2-c2ccoc2CC3)cc1	-5.0%	7.2	-7.9%
0.1%	COc1cc(C2NC(=O)NC(C)=C2C(=O)OCc2ccc(C)cc2)cc(OC)c1OC (configuration not stated)	4.9%	.	12.4%
3.9%	CC1CCCCC12NC(=O)N(CC(=O)OCC(=O)c1ccc(OC(F)F)cc1OC(F)F)C2=O (configuration not stated)	6.3%	.	-0.1%
3.9%	COc1cc(C(=O)NCC2(c3ccccc3)CCCC2)ccc1OC(C)C	-2.2%	.	-10.7%
-0.6%	COc1c2ccoc2c(OC[C@@H](O)C(C)(C)O)c2oc(=O)ccc12	-9.2%	5.9	-11.6%
2.5%	CC(=O)Nc1nc2nc(-c3ccccc3)cc(-c3ccccc3)n2n1	-11.0%	-2.7	-5.6%
-0.6%	Cn1cncc1C#Cc1ccc2c(=O)c3ccccc3oc2c1	?	.	.
0.1%	CCOCCOC(=O)c1ccc(NC(=O)c2cc3ccccc3o2)cc1	-8.7%	.	.
0.3%	COc1ccc(C(=O)N2CCN=C2SC)cc1	14.7%	-2.1	-7.6%
-0.2%	Cc1cccc(NC2SC(=O)N(c3ccccc3)C2=O)c1 (configuration not stated)	4.6%	-0.9	-66.7%
-4.1%	COc1cc(C(=O)NNC(=O)c2ccoc2C)cc(OC)c1OC	1.1%	1.3	0.9%
-3.0%	c1cc(CNCC2CCCO2)ccn1 (configuration not stated)	3.1%	10.2	-1.7%
-1.4%	O=C(CCNS(=O)(=O)c1c(Cl)cccc1Cl)N1CCCC1	6.5%	.	.
-1.1%	CCCN1CCN(CCCNC(=O)c2cc3c(=O)[nH]c4ccccc4c3s2)CC1	-2.0%	10.3[21.1 µM]	-6.4%&-22.1%
-1.4%	CCC1CCCCN1CCCNC(=O)CC1Oc2ccc(C)cc2NC1=O (configuration not stated)	7.0%	2.0	-7.4%
?	COC(=O)Cn1c(CCC(=O)O)ccc1-c1ccccc1	-11.4%	9.5	0.5%
0.1%	Cc1cccc(NC(=O)C2CCN(S(=O)(=O)c3ccc4ccccc4c3)CC2)n1	-0.3%	.	.
-2.5%	Cc1cccc(OCC(=O)NCC(=O)N/N=C/c2cccs2)c1	-8.1%	-2.6	-3.9%
2.6%	N#Cc1c(N)nc(SCc2ccccn2)c(C#N)c1-c1cccs1	-14.0%	-8.0	-3.2%

These rows are one share of the data; rates above refer to the full screens.
